Screens as filed in PubChem BioAssay.
FGF22 binding: binders of human FGF22 protein, primary screen, FGF22 synaptogenesis inhibitor project, biophysical, thermal shift, single point; Fibroblast growth factor 22 (Homo sapiens), Q9HCT0; recombinant FGF22 thermal shift, SYPRO orange fluorescence; percent of sucrose octasulfate shift, DMSO zero; calls only at 9.99 µM; hit rate 1.5% among 340,000; AID 651658, 2012;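 active means melting point raised past a set limit in the mean and every replicate; three in four hits are not shown here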
Target sequence (Q9HCT0 whole entry, looked up): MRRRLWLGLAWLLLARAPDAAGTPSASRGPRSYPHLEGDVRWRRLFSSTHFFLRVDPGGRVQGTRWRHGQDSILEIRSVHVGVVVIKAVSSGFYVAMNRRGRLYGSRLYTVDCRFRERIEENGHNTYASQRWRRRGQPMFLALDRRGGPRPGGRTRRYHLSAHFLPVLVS
MLL AF4-AF9 inh: inhibitors of AF4 peptide binding to AF9, primary screen, biochemical, AlphaScreen, biotin-AF4 peptide, FLAG-AF9, single point; Protein AF-9 (Homo sapiens), P42568; inhibition, % at 10 µM; hit rate 0.47% among 350,000;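 active means every replicate reaching a set inhibition limit, whatever the replicate mean, cut at about 25% in these data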;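 further: 0% = plate neutral control median and 100% = total signal loss; the record names both 10 and 1 µM as test concentration; the first replicate is given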
Target sequence (P42568 whole entry, looked up): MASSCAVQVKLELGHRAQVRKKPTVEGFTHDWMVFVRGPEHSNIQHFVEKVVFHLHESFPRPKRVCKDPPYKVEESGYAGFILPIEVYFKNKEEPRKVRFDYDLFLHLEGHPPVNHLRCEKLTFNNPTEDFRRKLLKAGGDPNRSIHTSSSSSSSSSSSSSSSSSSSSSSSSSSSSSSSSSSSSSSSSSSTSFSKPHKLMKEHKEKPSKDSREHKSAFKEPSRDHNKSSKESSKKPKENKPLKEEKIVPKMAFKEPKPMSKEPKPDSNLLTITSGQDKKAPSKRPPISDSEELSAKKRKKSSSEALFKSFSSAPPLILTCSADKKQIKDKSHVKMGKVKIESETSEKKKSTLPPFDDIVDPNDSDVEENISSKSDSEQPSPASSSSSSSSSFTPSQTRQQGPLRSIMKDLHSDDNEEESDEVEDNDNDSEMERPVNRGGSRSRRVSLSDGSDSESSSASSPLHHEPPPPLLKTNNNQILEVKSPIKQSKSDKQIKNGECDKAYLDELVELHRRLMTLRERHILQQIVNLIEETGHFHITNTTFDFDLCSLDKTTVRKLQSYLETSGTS
* marks the source's active call; other numbers are inactive results.

The opening five compounds (preview)
What do the screens show for `CCNC(=O)C[C@H]1CC[C@@H](NC(=O)NC2CCCCC2)[C@H](CO)O1`?
FGF22 binding: inactive; MLL AF4-AF9 inh: -0.1

How did CN(C)CCCNC(=O)C[C@H]1CC[C@H]2[C@@H](COC[C@H](O)CN2C(=O)c2ccncc2)O1 do in these assays?
FGF22 binding: inactive; MLL AF4-AF9 inh: -7.5

Results for CC(=O)Nc1ccc2c(c1)C(=O)N(C)[C@@H]1CC[C@H](CC(=O)NCCCN3CCOCC3)O[C@@H]1CO2 ?
FGF22 binding: inactive; MLL AF4-AF9 inh: -2.5

Results for COCC(=O)N1CC(=O)N2[C@H](CO)[C@H](c3ccc(-c4ccccc4F)cc3)[C@@H]2C1 ?
FGF22 binding: inactive; MLL AF4-AF9 inh: -14.6

Results for CC(C)NC(=O)Nc1ccc2c(c1)C(=O)N([C@H](C)CO)C[C@H](C)[C@@H](CN(C)Cc1ccc(Oc3ccccc3)cc1)O2 ?
FGF22 binding: inactive; MLL AF4-AF9 inh: 3.7

This part in full, from the first entry:
What do the screens show for `CCNC(=O)C[C@H]1CC[C@@H](NC(=O)NC2CCCCC2)[C@H](CO)O1`?
FGF22 binding: inactive; MLL AF4-AF9 inh: -0.1

How did CN(C)CCCNC(=O)C[C@H]1CC[C@H]2[C@@H](COC[C@H](O)CN2C(=O)c2ccncc2)O1 do in these assays?
FGF22 binding: inactive; MLL AF4-AF9 inh: -7.5

Results for CC(=O)Nc1ccc2c(c1)C(=O)N(C)[C@@H]1CC[C@H](CC(=O)NCCCN3CCOCC3)O[C@@H]1CO2 ?
FGF22 binding: inactive; MLL AF4-AF9 inh: -2.5

Results for COCC(=O)N1CC(=O)N2[C@H](CO)[C@H](c3ccc(-c4ccccc4F)cc3)[C@@H]2C1 ?
FGF22 binding: inactive; MLL AF4-AF9 inh: -14.6

Results for CC(C)NC(=O)Nc1ccc2c(c1)C(=O)N([C@H](C)CO)C[C@H](C)[C@@H](CN(C)Cc1ccc(Oc3ccccc3)cc1)O2 ?
FGF22 binding: inactive; MLL AF4-AF9 inh: 3.7

How did CCCNC(=O)Nc1ccc2c(c1)C(=O)N(C)C[C@@H](OC)[C@@H](C)CN(S(C)(=O)=O)[C@H](C)CO2 do in these assays?
FGF22 binding: inactive; MLL AF4-AF9 inh: -6.4

What do the screens show for `CC(C)NC(=O)Nc1ccc2c(c1)C(=O)N([C@H](C)CO)C[C@H](C)[C@H](CN(C)S(=O)(=O)c1ccc(Cl)cc1)OCCCC[C@H](C)O2`?
FGF22 binding: inactive; MLL AF4-AF9 inh: 3.4

Results for CNC[C@H]1Oc2c(NC(=O)c3nc4ccccc4s3)cccc2C(=O)N([C@H](C)CO)C[C@H]1C ?
FGF22 binding: inactive; MLL AF4-AF9 inh: 1.6

Results for C[C@H]1CN([C@@H](C)CO)C(=O)c2cccc(NS(=O)(=O)c3ccccc3)c2O[C@H]1CN(C)Cc1ccc(Oc2ccccc2)cc1 ?
FGF22 binding: inactive; MLL AF4-AF9 inh: -3.2

Results for C[C@@H](NC(=O)C[C@H]1C=C[C@@H](NC(=O)Nc2ccc3c(c2)OCO3)[C@@H](CO)O1)c1ccccc1 ?
FGF22 binding: inactive; MLL AF4-AF9 inh: 0.1

How did COc1ccc2c3c(n(C)c2c1)[C@H](CO)N(Cc1ccccc1)CC31CCN(CC2CC2)CC1 do in these assays?
FGF22 binding: inactive; MLL AF4-AF9 inh: 17.7

Results for Cc1ccc(S(=O)(=O)Nc2ccc3c(c2)CC(=O)N([C@H](C)CO)C[C@@H](C)[C@H](CN(C)S(=O)(=O)c2cccs2)O3)cc1 ?
FGF22 binding: inactive; MLL AF4-AF9 inh: -14.5

What do the screens show for `CC(C)NC(=O)N(C)C[C@@H]1OCCCC[C@@H](C)Oc2ccc(NS(=O)(=O)c3ccccc3)cc2C(=O)N([C@H](C)CO)C[C@H]1C`?
FGF22 binding: inactive; MLL AF4-AF9 inh: 5.0

Results for CNC[C@H]1OCCCC[C@@H](C)Oc2ccc(N)cc2C(=O)N([C@@H](C)CO)C[C@@H]1C ?
FGF22 binding: inactive; MLL AF4-AF9 inh: -15.9

How did C[C@H]1CN([C@@H](C)CO)S(=O)(=O)c2ccc(C#CCN(C)C)cc2O[C@H]1CN(C)C(=O)C1CCCCC1 do in these assays?
FGF22 binding: inactive; MLL AF4-AF9 inh: 0.8

How did O=C(O)[C@@H]1[C@@H](CO)[C@@H]2Cn3c(ccc(/C=C/c4ccccc4)c3=O)[C@@H]2N1C(=O)c1cnccn1 do in these assays?
FGF22 binding: inactive; MLL AF4-AF9 inh: 0.6

What do the screens show for `C[C@H](NC(=O)C[C@H]1C=C[C@H](NC(=O)CN2CCOCC2)[C@@H](CO)O1)c1ccccc1`?
FGF22 binding: inactive; MLL AF4-AF9 inh: -1.8

What do the screens show for `C[C@H](CO)N1C[C@H](C)[C@H](CN(C)Cc2ccncc2)Oc2ccc(NC(=O)Nc3ccc4c(c3)OCO4)cc2C1=O`?
FGF22 binding: inactive; MLL AF4-AF9 inh: 5.3

How did O=C(C[C@H]1C[C@@H]2c3cc(NC(=O)CC4CC4)ccc3O[C@@H]2[C@@H](CO)O1)NCc1ccccc1F do in these assays?
FGF22 binding: inactive; MLL AF4-AF9 inh: -0.1

What do the screens show for `CNC[C@H]1Oc2ccc(NC(=O)C3CCCCC3)cc2CC(=O)N([C@@H](C)CO)C[C@@H]1C`?
FGF22 binding: inactive; MLL AF4-AF9 inh: -3.9

What do the screens show for `Cc1ccccc1S(=O)(=O)N1C[C@H](O)COC[C@H]2O[C@H](CC(=O)NCCc3ccccc3)CC[C@@H]21`?
FGF22 binding: inactive; MLL AF4-AF9 inh: 13.5

How did CC(C)CC#Cc1ccc2c(c1)O[C@H](CN(C)S(=O)(=O)c1ccc(F)cc1)[C@H](C)CN([C@@H](C)CO)S2(=O)=O do in these assays?
FGF22 binding: inactive; MLL AF4-AF9 inh: 0.1

Results for O=C(C[C@H]1CC[C@H]2[C@@H](COC[C@@H](O)CN2Cc2nccs2)O1)NCc1ccc(Cl)cc1 ?
FGF22 binding: inactive; MLL AF4-AF9 inh: -2.8

What do the screens show for `C[C@@H]1CN([C@H](C)CO)C(=O)c2cccc(NC(=O)c3ccc(-c4nccs4)cc3)c2O[C@H]1CN(C)Cc1ccc2c(c1)OCO2`?
FGF22 binding: inactive; MLL AF4-AF9 inh: -6.9

Results for C[C@@H]1CN([C@H](C)CO)C(=O)c2cc(NC(=O)Cc3ccccc3)ccc2O[C@@H](C)CCCCO[C@H]1CN(C)S(C)(=O)=O ?
FGF22 binding: inactive; MLL AF4-AF9 inh: 6.2

Results for COc1ccc(NC(=O)Nc2ccc3c(c2)CC(=O)N([C@@H](C)CO)C[C@H](C)[C@H](CN(C)C)O3)cc1 ?
FGF22 binding: inactive; MLL AF4-AF9 inh: 2.3

Results for C[C@H]1CN([C@@H](C)CO)C(=O)Cc2cc(NS(=O)(=O)c3ccccc3)ccc2O[C@H]1CN(C)Cc1ccncc1 ?
FGF22 binding: inactive; MLL AF4-AF9 inh: -3.2

How did C[C@H]1CN([C@@H](C)CO)C(=O)c2cccc(NS(C)(=O)=O)c2O[C@H]1CN(C)S(=O)(=O)c1ccc(Cl)cc1 do in these assays?
FGF22 binding: inactive; MLL AF4-AF9 inh: -6.6

What do the screens show for `CO[C@H]1CN(C)C(=O)c2ccc(NS(C)(=O)=O)cc2OC[C@@H](C)N(C(=O)C2CCOCC2)C[C@@H]1C`?
FGF22 binding: inactive; MLL AF4-AF9 inh: -3.9

How did O=C(C[C@H]1C[C@H]2c3cc(NC(=O)Nc4ccc(C(F)(F)F)cc4)ccc3O[C@H]2[C@H](CO)O1)NC1CCCCC1 do in these assays?
FGF22 binding: inactive; MLL AF4-AF9 inh: -0.6

Results for C[C@@H]1CN([C@@H](C)CO)C(=O)c2cc(C3=CCCCC3)cnc2O[C@H]1CN(C)Cc1ccccc1F ?
FGF22 binding: inactive; MLL AF4-AF9 inh: 11.7

How did COCCNC(=O)C[C@H]1C[C@H]2c3cc(NC(=O)Nc4ccc(OC)cc4)ccc3O[C@H]2[C@H](CO)O1 do in these assays?
FGF22 binding: inactive; MLL AF4-AF9 inh: -8.0

How did CCCC#Cc1ccc([C@@H]2[C@@H](CO)N3CCCCN(Cc4ccncc4)C[C@@H]23)cc1 do in these assays?
FGF22 binding: inactive; MLL AF4-AF9 inh: 6.3

How did C[C@H](CO)N1C[C@H](C)[C@H](CN(C)C(=O)Nc2ccc(F)cc2)Oc2c(NS(=O)(=O)c3ccc(F)cc3)cccc2C1=O do in these assays?
FGF22 binding: inactive; MLL AF4-AF9 inh: 0.2

What do the screens show for `CN(C)C(=O)C[C@H]1CC[C@H](NC(=O)Nc2cccc(F)c2)[C@@H](CO)O1`?
FGF22 binding: inactive; MLL AF4-AF9 inh: -2.1

How did C[C@@H]1CN([C@H](C)CO)C(=O)c2cc(C3=CCCCC3)cnc2O[C@@H]1CN(C)S(=O)(=O)c1cn(C)cn1 do in these assays?
FGF22 binding: inactive; MLL AF4-AF9 inh: -2.6

What do the screens show for `C[C@@H]1CN([C@H](C)CO)C(=O)c2cccc(NC(=O)C3CC3)c2O[C@H]1CN(C)Cc1ccc(Oc2ccccc2)cc1`?
FGF22 binding: inactive; MLL AF4-AF9 inh: 6.0

What do the screens show for `Cc1noc(C)c1S(=O)(=O)Nc1cccc2c1O[C@@H](CN(C)C(=O)Nc1ccc3c(c1)OCO3)[C@@H](C)CN([C@H](C)CO)C2=O`?
FGF22 binding: inactive; MLL AF4-AF9 inh: -0.1

Results for COC(=O)C1=C(C)N(Cc2cccc(C(F)(F)F)c2)C(=NCc2ccc3c(c2)OCO3)NC1c1cccc(C(F)(F)F)c1 (configuration not stated) ?
MLL AF4-AF9 inh: 6.1

How did O=C(C1CCCCC1)N1C[C@H]2[C@@H](c3ccccc31)[C@H](CO)N2CC1CCOCC1 do in these assays?
FGF22 binding: inactive; MLL AF4-AF9 inh: -1.1

In the list so far, two contain a CF3 group:
How did O=C(C[C@H]1C[C@H]2c3cc(NC(=O)Nc4ccc(C(F)(F)F)cc4)ccc3O[C@H]2[C@H](CO)O1)NC1CCCCC1 do in these assays?
FGF22 binding: inactive; MLL AF4-AF9 inh: -0.6

Results for COC(=O)C1=C(C)N(Cc2cccc(C(F)(F)F)c2)C(=NCc2ccc3c(c2)OCO3)NC1c1cccc(C(F)(F)F)c1 (configuration not stated) ?
MLL AF4-AF9 inh: 6.1

Additional records:
What do the screens show for `CC(C)CC#Cc1ccc2c(c1)O[C@@H](CN(C)C(=O)c1ccccn1)[C@@H](C)CN([C@@H](C)CO)S2(=O)=O`?
FGF22 binding: inactive; MLL AF4-AF9 inh: 4.2

How did C[C@H](CO)N1C[C@H](C)[C@H](CN(C)S(=O)(=O)c2ccc(F)cc2)Oc2ccc(NS(=O)(=O)c3ccc(F)cc3)cc2CC1=O do in these assays?
FGF22 binding: inactive; MLL AF4-AF9 inh: 1.5

What do the screens show for `CS(=O)(=O)Nc1ccc2c(c1)[C@H]1C[C@H](CC(=O)NCCc3ccccc3)O[C@H](CO)[C@H]1O2`?
FGF22 binding: inactive; MLL AF4-AF9 inh: 0.6

How did COc1ccc(S(=O)(=O)N(C)C[C@H]2Oc3ccc(NC(=O)Cn4cnnn4)cc3CC(=O)N([C@H](C)CO)C[C@H]2C)cc1 do in these assays?
FGF22 binding: inactive; MLL AF4-AF9 inh: -0.1

How did Cc1noc(C)c1S(=O)(=O)N(C)C[C@H]1OCCCC[C@@H](C)Oc2ccc(NS(=O)(=O)c3cn(C)cn3)cc2C(=O)N([C@@H](C)CO)C[C@H]1C do in these assays?
FGF22 binding: inactive; MLL AF4-AF9 inh: -1.9

Results for C[C@H]1CN([C@@H](C)CO)C(=O)c2cc(C#CCN(C)C)cnc2O[C@H]1CN(C)C(=O)c1cccnc1 ?
FGF22 binding: inactive; MLL AF4-AF9 inh: -5.6

What do the screens show for `C[C@H]1CCCCO[C@@H](CN(C)Cc2ccc(C(=O)O)cc2)[C@@H](C)CN([C@@H](C)CO)C(=O)c2cc(NS(=O)(=O)c3cccs3)ccc2O1`?
FGF22 binding: inactive; MLL AF4-AF9 inh: -2.7

What do the screens show for `C[C@@H]1CN([C@@H](C)CO)C(=O)c2cc(NS(=O)(=O)c3cccs3)ccc2O[C@@H](C)CCCCO[C@@H]1CN(C)S(=O)(=O)c1ccccc1`?
FGF22 binding: inactive; MLL AF4-AF9 inh: -1.4

How did CS(=O)(=O)N1[C@H](C#N)[C@@H](c2ccc(C#Cc3cccc(F)c3)cc2)[C@@H]1CO do in these assays?
FGF22 binding: inactive; MLL AF4-AF9 inh: -7.4

What do the screens show for `COc1ccc(C#Cc2ccc3c(c2)O[C@@H](CN(C)C(=O)c2ccccn2)[C@@H](C)CN([C@H](C)CO)S3(=O)=O)cc1`?
FGF22 binding: inactive; MLL AF4-AF9 inh: 3.3

How did C[C@@H]1CCCCO[C@@H](CN(C)C(=O)NC2CCCCC2)[C@@H](C)CN([C@@H](C)CO)C(=O)c2cc(NC(=O)C3CCCCC3)ccc2O1 do in these assays?
FGF22 binding: inactive; MLL AF4-AF9 inh: -1.7

How did C[C@@H]1CCCCO[C@@H](CN(C)S(=O)(=O)c2cn(C)cn2)[C@@H](C)CN([C@H](C)CO)C(=O)c2cc(NC(=O)Nc3ccccc3)ccc2O1 do in these assays?
FGF22 binding: inactive; MLL AF4-AF9 inh: -3.0

Results for Cc1ccc(S(=O)(=O)N(C)C[C@@H]2Oc3ccc(NC(=O)Nc4ccc(C(F)(F)F)cc4)cc3C(=O)N([C@@H](C)CO)C[C@@H]2C)cc1 ?
FGF22 binding: active; MLL AF4-AF9 inh: -0.5

How did CC(C)CC#Cc1ccc2c(c1)O[C@@H](CN(C)S(=O)(=O)c1cccc(F)c1)[C@H](C)CN([C@H](C)CO)S2(=O)=O do in these assays?
FGF22 binding: inactive; MLL AF4-AF9 inh: 2.1

These rows are one share of the data; rates above refer to the full screens.
